Screening results as filed in PubChem.
Mtb MbtI inh: MbtI salicylate synthase inhibitors, primary screen, biochemical, fluorescence intensity | P9WFX0 | purified MbtI enzyme, fluorescence intensity read-out | inhibition, %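 (about 17 µg/mL by stock and volumes)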 | 0.89% of 100,000 active | AID 493033, 2011;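 active = above 50% in both replicates, above 80% if mildly self-fluorescent; inactive = the rest, strongly fluorescent compounds included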;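 also: 0% = mean of negative and 100% = mean of positive controls; one replicate is shown; some compounds called inactive have numbers as strong as hits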
MenB inh: M. tuberculosis MenB inhibitors, primary screen, biochemical, absorbance; 1,4-dihydroxy-2-naphthoyl-CoA synthase (Mycobacterium tuberculosis (strain ATCC 25618 / …; MenB enzyme assay, absorbance read-out; some hits fall short of the stated cut; inhibition, %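 (about 12 µg/mL by stock and volumes)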; 0.43% of 100,000 active; AID 540299, 2011;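 active = mean of two replicates above 30%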;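 also: 0% = no compound and 100% = wells with inactive enzyme; the first replicate is given; strong numbers were not always called active; inactives centre near -10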
Target sequence (P9WNP5 whole entry, looked up): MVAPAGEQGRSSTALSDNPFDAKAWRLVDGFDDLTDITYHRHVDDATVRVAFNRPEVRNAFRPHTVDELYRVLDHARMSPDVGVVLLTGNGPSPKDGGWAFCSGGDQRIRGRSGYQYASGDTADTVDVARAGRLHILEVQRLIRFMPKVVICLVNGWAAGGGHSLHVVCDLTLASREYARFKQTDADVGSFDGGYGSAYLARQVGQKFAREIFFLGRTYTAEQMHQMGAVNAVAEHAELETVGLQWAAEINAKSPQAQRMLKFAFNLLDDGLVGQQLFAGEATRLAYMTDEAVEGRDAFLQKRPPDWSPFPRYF
Polio RdRp inh: poliovirus RdRp elongation inhibitors, primary screen, biochemical, fluorescence polarization, total intensity | poliovirus polymerase elongation; active compounds read low | % elongation, % (compound at 16.7 µg/mL) | Genome polyprotein (Poliovirus type 1 (strain Mahoney)), P03300 | 0.66% of 150,000 active; in the data active = % elongation below about 90%; also: some results filed as inactive read as strong as hits
Target sequence (P03300 1749-2209 limits assumed): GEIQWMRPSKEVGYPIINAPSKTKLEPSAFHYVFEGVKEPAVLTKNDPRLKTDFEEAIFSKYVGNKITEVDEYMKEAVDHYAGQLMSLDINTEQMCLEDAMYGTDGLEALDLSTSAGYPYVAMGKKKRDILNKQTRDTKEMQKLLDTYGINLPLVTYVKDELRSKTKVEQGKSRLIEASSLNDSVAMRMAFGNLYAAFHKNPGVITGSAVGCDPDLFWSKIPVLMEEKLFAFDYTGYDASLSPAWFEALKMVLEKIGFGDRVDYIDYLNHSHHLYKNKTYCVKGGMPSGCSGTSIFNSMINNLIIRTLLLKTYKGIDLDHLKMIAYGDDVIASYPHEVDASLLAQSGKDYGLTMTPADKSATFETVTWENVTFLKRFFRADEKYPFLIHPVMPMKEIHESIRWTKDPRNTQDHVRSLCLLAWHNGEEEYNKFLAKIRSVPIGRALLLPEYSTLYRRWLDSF
Polio RdRp inh intensity: second read-out of Polio RdRp inh, no call of its own (marks repeat the call); % elongation; measured here: total intensity read-out; formula for this scale not given here;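 total fluorescence in place of polarization; lower means less elongation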
An asterisk follows results filed as active; . = no result given; & = joins results of further samples. No enrichment for hits, and some 1.7% of all compounds hit somewhere here.

SMILES	Mtb MbtI inh	MenB inh	Polio RdRp inh	Polio RdRp inh intensity
CC1(C)C2CC=C(/C=N/n3cnnc3)C1C2 (configuration not stated)	-8	.	102	104
O=S(=O)(c1ccc(-c2ccccc2)cc1)N1CCOCC1	.	4	108	103
O=C(O)/C=C/c1ccc(Cl)cc1Cl	4	-7	.	.
c1cn2cc(Cc3nnc4n3CCC4)nc2s1	-7	.	101	101
O=C(c1ccccc1)c1cccc(NC(=O)C2CC2)c1	-21	-31	102	101
O=C(COc1ccc(C2N(Cc3ccccc3)CCN2Cc2ccccc2)cc1)N1CCOCC1	-5	-2	101	104
O=C(c1cc2sccc2n1Cc1ccccc1)N1CCN(c2ccccc2F)CC1	4	-8	101	103
COc1ccc(C(=O)OCC(=O)Nc2ncc(Cl)c(C)c2Cl)c(OC)c1	-6	-1	114	133
Cc1cccc(NC(=O)C(C)N2CCNC(=O)C2)c1 (configuration not stated)	-11	-9	102	109
Cc1c(C)c2c(c(C)c1O)CCC(C)(C(=O)O)O2 (configuration not stated)	-1	2	101	101
COC(=O)C12CC3CC(CC(Br)(C3)C1)C2	-10	.	103	102
NNC(=O)c1ccc(OCc2ccc(F)cc2)cc1	2	7	100	103
Cc1ccc(/C(N)=N/OC(=O)c2ccccc2)cc1	-8	5	102	105
CC1(C)CC(NCc2ccccc2)CCO1 (configuration not stated)	-18	-22	100	103
CCN1CCCC(OC(=O)C(c2ccccc2)c2ccccc2)C1 (configuration not stated)	0&-20	-4&2	98&101	101&100
Nc1nc2ccc(Oc3ccccc3)cc2s1	-4	.	102	105
CC1(C)CC(C(=O)COc2ccc3ccc(=O)oc3c2)CCO1 (configuration not stated)	.	-1	101	96
Cc1oc2c(c1C(=O)NCc1cc(C(=O)O)co1)CCCC2	-11	-5	103	101
O=C(O)COc1ccc(/C=C2/NC(=S)NC2=O)cc1	-6	-6	104	108
c1ccc(-c2nc(C3CCCCC3)no2)cc1	.	-5	107	102
Cc1onc(-c2ccccc2)c1NC(=O)N(CCC#N)C(C)C	-10	-5	101	106
CC(C)(C)NC(=O)c1ccc(COc2ccc(Cl)cc2Cl)o1	15	-22	101	102
O=C(CSc1ccccn1)Nc1ccc(Cl)cc1	0	16	100	100
CCOC(=O)c1cc(-c2cccc(C(F)(F)F)c2)n[nH]1	-4	-11	96	101
O=C(CCc1nnc2n(Cc3ccc(F)cc3)c(=O)c3ccccc3n12)N1CCOCC1	6	-5	101	105
COc1cccc(-c2nc(CS(=O)(=O)CC(=O)N3CCCCC3)c(C)o2)c1	15	6	98	103
CC(C)(C)c1ccc(C(=O)Nc2ccc3oc(-c4ccncc4)nc3c2)cc1	32	6	100	101
O=C(O)CCC(=O)N1CCN(c2nc(-c3ccccc3)c3cc(Br)ccc3n2)CC1	-1	-24	101	104
Cc1noc(C)c1/C=N/NC(=S)NCCc1ccccc1	40	-3	105	105
O=C1c2cccnc2C(Nc2ccc(Br)cc2)N1C1CCCCC1 (configuration not stated)	-1	4	100	104
O=C1OC2C(C(=O)O)Sc3c(sc(=O)n3-c3ccccc3)C2c2cc(Br)ccc21 (configuration not stated)	-7	39*	100	110
N#CC(c1nc2ccccc2nc1Cl)S(=O)(=O)c1ccccc1 (configuration not stated)	2	-16	107	101
S=C(Nc1ccc(Cl)cc1)N1CCN=C1Nc1ccc(Cl)cc1	-1	-19	97	85
CN1/C(=c2/sc(=C3C(=O)NC(=S)NC3=O)n(C)c2=O)Sc2ccccc21	-3	3	85	140
CC(Cc1ccccc1)NCCC(c1ccccc1)c1ccccc1 (configuration not stated)	-5	-8	104	98
O=C(CSc1nc2ccccc2[nH]1)NO	-8	.	102	105
Cc1csc(/C=C2\CCc3c(cnc4ccc5ccccc5c34)C2=O)c1	4	-13	100	102
COC(=O)C1=C(CN2CCCC2)NC(=O)NC1c1ccc(OC)cc1 (configuration not stated)	-1	-52	103	101
Cc1ccc(NNC(=O)c2ccno2)cc1Cl	15	2	105	101
CC(C)(C)C(=O)C1=C(O)C(=O)N(Cc2ccccc2)C1c1cccnc1 (configuration not stated)	0	5	103	102
Cc1cccc(N=CC=C2OC(C)(C)C(C)(C)O2)c1	-10	-35	103	104
COc1ccc(-n2nnnc2SCC(=O)c2ccc3c(c2)OCCO3)c(OC)c1	-14	-37	104	100
Cc1cc(SCc2ncon2)c(Cl)cc1Cl	2	5	96	99
CCN(CC)c1nc2c(C)cccn2c(=O)c1/C=N/O	-2	13	101	104
C=CCOn1c(=O)c(=O)n(OCC=C)c2ccccc21	8	-1	101	105
CN(C(=S)NCc1ccccc1)C1CCCCC1	-3	-22	104	99
CCOC(=O)c1c(NC(=O)c2ccc(OC)cc2)sc2c1CC(C)CC2 (configuration not stated)	.	-13	107	107
Cn1cnc(S(=O)(=O)N2CCCN(C(=O)OC(C)(C)C)CC2)c1	1	-8	102	98
O=C(O)C1C2CCC(C2)C1C(=O)O (configuration not stated)	-8	0	107	111
N#CCCn1nc(-c2ccc(Cl)cc2)cc1-n1c(C(F)(F)F)nc2ccccc21	-13	-29	106	111
COc1ccc(-n2c3c(cc(C(N)=O)c2=O)C(=O)CCC3)cc1	27	24	102	102
Cn1cc(CCC(=O)NCc2ccccc2)c2ccccc21	-16	-13	102	103
Cc1ccc(F)cc1NC(C#N)c1ccccc1 (configuration not stated)	-12	-7	100	99
CC1CC(C)CN(C(=O)CSc2nnc(SCC(=O)N3CC(C)CC(C)C3)n2N)C1 (configuration not stated)	-8	-8	108	122
O=C(O)CCn1nnc(-c2cccs2)n1	-4	1	104	101
O=C1CN(C(=O)c2ccc(Br)cc2)c2ccccc2N1	0	-72	102	103
CC(=Nc1ccccc1)C1=C(O)COC1=O	15	-33	98	104
CC(C)(CN1CCN(C(c2ccccc2)c2ccccc2)CC1)NS(=O)(=O)c1ccccc1	.	-11	108	113
Cc1ccccc1OCC(=O)Nc1ccccc1Nc1ccccc1	-15	.	102	105
O=C(Cn1nnc(N2CCCCC2)n1)N/N=C/c1cccnc1	13	-6	103	103
More structures follow:
SMILES	Mtb MbtI inh	MenB inh	Polio RdRp inh	Polio RdRp inh intensity
CC(C)C(=O)NC(=S)Nc1ccc2oc(-c3cccnc3)nc2c1	-6	-5	104	104
CCC(NC(=O)NCc1ccc2c(c1)OCO2)(C(F)(F)F)C(F)(F)F	-10	-10	98	102
Cc1ccc(C(=O)OCCOc2ccc(Br)cc2)cc1	-10	.	103	106
C#CC1(O)CN2CCC1CC2 (configuration not stated)	-3	7	100	100
O=C(Oc1ccccc1N1CCOCC1)c1cccnc1Sc1ccc(Cl)cc1	-6	1	103	103
O=C(CSc1nccc(-c2csc(COc3ccccc3Cl)n2)n1)c1ccccc1	-4	-17	101	109
CC(Oc1ccc(C#N)cc1)C(=O)N1CC=C(c2ccccc2)CC1 (configuration not stated)	6	5	102	106
Cc1ccc(C(=O)NC2CS(=O)(=O)CC2NC(=O)c2ccc(C)c(Cl)c2)cc1Cl (configuration not stated)	.	-28	99	90
CC(C)(C)n1nc2c(c1NC(=O)Nc1ccccc1)CSC2	35	-5	102	101
Cc1c(CCN)sc2nc(-c3ccc(Cl)cc3)nn12	1	-2	101	106
CCSC1(SCC)N=C(N)C2(C#N)C(c3ccccc3Br)C12C#N (configuration not stated)	38	4	102	102
O=C(c1cc(C2CC2)nn1-c1ccccc1)N1CCN(c2ccccn2)CC1	22	-12	104	104
CCCCNC(=O)c1cc(=O)[nH]c2ccc(Br)cc12	-4	1	101	101
O=C1/C(=C/c2cccs2)SC(=S)N1Cc1ccccc1	-5	4	102	97
CCOC(=O)c1cnc2c(ccc3ccccc32)c1NCCOC(=O)c1cccnc1	95	-12	102	103

Given with two lines to a compound: two of the compounds above.
Order of results – Mtb MbtI inh	MenB inh	Polio RdRp inh	Polio RdRp inh intensity
C#CC1(O)CN2CCC1CC2 (configuration not stated)
→ -3	7	100	100
O=C(Oc1ccccc1N1CCOCC1)c1cccnc1Sc1ccc(Cl)cc1
→ -6	1	103	103

(list continues)
SMILES	Mtb MbtI inh	MenB inh	Polio RdRp inh	Polio RdRp inh intensity
Cc1nnc(SC(C)C(=O)NC(C)(C#N)C(C)C)n1-c1ccccc1 (configuration not stated)	-10	6	108	112
O=C(NCC1CCCO1)C1c2ccccc2C(=O)N1CCc1ccccc1 (configuration not stated)	4	6	101	103
CCN(C(=O)c1ccc2c(=O)n3c(nc2c1)CCCCC3)c1cc(OC)ccc1OC	-2	-17	103	101
c1ccc2c(c1)CCN2Cc1csc2c1CCCC2	0	-16	102	94
CC(CNC(=O)c1cc(C2CC2)[nH]n1)c1ccccc1 (configuration not stated)	-27	-16	103	100
S=C(Nc1ccccc1)N1CCCCC1	.	-1	105	110
Cn1c2ccccc2c2nnc(SCCC(=O)N3CCCC3)nc21	3	-28	100	101
COc1ccc(/C=C(/C#N)S(=O)(=O)C2CCCCC2)cc1	14	-21	100	106
CCC(C)NC(=O)c1oc2ccc3c(c2c1C)C(=O)CC1(CCCC1)O3 (configuration not stated)	29	17	100	98
CCOC(=O)Cc1c[nH]c2ccccc12	-16	6	100	103
CSc1ncccc1C(=O)OCc1ccccc1	-2	.	102	98
COc1ccc(-c2cn3cc(Cl)ccc3n2)cc1OC	100	.	100	97
Cc1cccc(NC(=O)CC(=O)c2ccccc2)c1	-12	.	104	104
Brc1ccc(-c2nnco2)cc1	-8	-20	100	105
Cc1cc(C(=O)O)c(C)o1	-7	.	100	103
CC(CCc1ccccc1)NC(=O)c1ccc2ccccc2c1 (configuration not stated)	8	1	102	106
c1ccc(Nc2ncnc3sccc23)cc1	-36	-8	108	113
COC(=O)c1cc(COC(=O)CNC(=O)C23CC4CC(CC(C4)C2)C3)oc1C	-22	-16	104	95
CC1=C(C(N)=O)C(c2cccs2)NC(=S)N1 (configuration not stated)	2	0	103	108
CCOC(=O)c1oc2ccccc2c1C	19	-1	104	105
O=C1C(Nc2ccc(O)cc2)=C(n2nnc3ccccc32)C(=O)c2ccccc21	.	-33	79*	79*
Cc1nc2ccc(NC(=O)N(C(C)C)C(C)C)cc2s1	-44	-8	100	103
CS(=O)(=O)c1sc(C(=O)Sc2cccs2)c2c1C=CCC2	61	12	97	96
COc1ccc(CC(=O)N2CCN(C(=O)Cc3ccc(OC)cc3)CC2)cc1	3	-14	105	101
O=C(COC(=O)[C@@H]1CC(O)CN1S(=O)(=O)c1ccc2c(c1)OCCO2)c1ccccc1 (some centres not stated)	2	-14	106	104
CNC(=S)Nc1ccc(N2CCN(c3ccc(C(F)(F)F)cn3)CC2)nc1	-15	3	103	116
S=C(/N=C(\Nc1ccccc1)c1ccccc1)Nc1ccccc1	.	-45	106	111
CC(=O)OCC1=C(C(=O)O)N2C(=O)[C@@H](NC(=O)CCCC(N)C(=O)O)C2SC1 (some centres not stated)	-1	-2	98	101
CCCNC(=O)CSc1nnc(-c2ccncc2)n1CCOC	-11	-30	99	100
Cc1cccc(Cn2cc(C(=O)c3ccc(C)c(C)c3)c(=O)c3cc4c(cc32)OCO4)c1	11	-16	103	105
c1ccc2c(N3CCOCC3)c3c(nc2c1)CCC3	.	-4	110	108
CCOC(=O)N1CCC(N(CCOC)C(=S)Nc2ccccc2F)CC1	-18	-33	103	104
Cc1ccnc(N2CCC(C(=O)O)CC2)n1	1	-1	105	100
COc1ccc(OC(=O)C2CC(=O)N(c3ccc(C)cc3)C2)cc1 (configuration not stated)	-7	4	100	101
Cc1c(C(=O)CC#N)sc2ccc(Cl)cc12	-9	-27	108	103
Cc1ccc(S(=O)(=O)CC2CSc3nnc(C)c(=O)n32)cc1 (configuration not stated)	-6	-21	103	95
NC(=O)COC(=O)c1n[nH]c2ccccc12	103	-4	103	110
CNC(=O)Nc1ccccc1NC1=C(C(=O)OC)CSC1	69	15	80	136
Cc1sc(NC(=O)Cn2nc(C(F)(F)F)cc2C)c(C(N)=O)c1C	.	3	68*	76*
Cc1nccn1-c1ccc(C(F)(F)F)cc1NC=O	4	-15	101	103
CC(C)OC(=O)c1cc2cc(Br)ccc2oc1=O	10	-11	100	101
CCCc1cc(=O)[nH]c(/N=C(\N)Nc2cccc(C)c2)n1	-9	-5	102	107

Structural class, those above containing a thiophene ring, fused or not (11)
SMILES	Mtb MbtI inh	MenB inh	Polio RdRp inh	Polio RdRp inh intensity
O=C(c1cc2sccc2n1Cc1ccccc1)N1CCN(c2ccccc2F)CC1	4	-8	101	103
Cc1csc(/C=C2\CCc3c(cnc4ccc5ccccc5c34)C2=O)c1	4	-13	100	102
CCOC(=O)c1c(NC(=O)c2ccc(OC)cc2)sc2c1CC(C)CC2 (configuration not stated)	.	-13	107	107
O=C(O)CCn1nnc(-c2cccs2)n1	-4	1	104	101
O=C1/C(=C/c2cccs2)SC(=S)N1Cc1ccccc1	-5	4	102	97
c1ccc2c(c1)CCN2Cc1csc2c1CCCC2	0	-16	102	94
c1ccc(Nc2ncnc3sccc23)cc1	-36	-8	108	113
CC1=C(C(N)=O)C(c2cccs2)NC(=S)N1 (configuration not stated)	2	0	103	108
CS(=O)(=O)c1sc(C(=O)Sc2cccs2)c2c1C=CCC2	61	12	97	96
Cc1c(C(=O)CC#N)sc2ccc(Cl)cc12	-9	-27	108	103
Cc1sc(NC(=O)Cn2nc(C(F)(F)F)cc2C)c(C(N)=O)c1C	.	3	68*	76*
